KCNQ2 pot: enhances the rat KCNQ2 potassium channel. O88943. CHO-K1 KCNQ2, FluxOR thallium flux fluorescence; active compounds read high. B-score at 10 µM. hit rate 0.54% among 310,000. AID 2239;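 active = fluorescence ratio B-score at least 3 SD of library B-scores, with initial fluorescence B-score within 3 SD, cut at about 5.3 in these data; same plate scores as AID 2156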;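 note: B-score of peak minus minimum over baseline fluorescence ratio after K+ and Tl+ stimulus; positive B-score means potentiation of KCNQ2 with more thallium influx and brighter signal; only the inactives scoring about 0 or higher are listed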
Target sequence (O88943 whole entry, looked up): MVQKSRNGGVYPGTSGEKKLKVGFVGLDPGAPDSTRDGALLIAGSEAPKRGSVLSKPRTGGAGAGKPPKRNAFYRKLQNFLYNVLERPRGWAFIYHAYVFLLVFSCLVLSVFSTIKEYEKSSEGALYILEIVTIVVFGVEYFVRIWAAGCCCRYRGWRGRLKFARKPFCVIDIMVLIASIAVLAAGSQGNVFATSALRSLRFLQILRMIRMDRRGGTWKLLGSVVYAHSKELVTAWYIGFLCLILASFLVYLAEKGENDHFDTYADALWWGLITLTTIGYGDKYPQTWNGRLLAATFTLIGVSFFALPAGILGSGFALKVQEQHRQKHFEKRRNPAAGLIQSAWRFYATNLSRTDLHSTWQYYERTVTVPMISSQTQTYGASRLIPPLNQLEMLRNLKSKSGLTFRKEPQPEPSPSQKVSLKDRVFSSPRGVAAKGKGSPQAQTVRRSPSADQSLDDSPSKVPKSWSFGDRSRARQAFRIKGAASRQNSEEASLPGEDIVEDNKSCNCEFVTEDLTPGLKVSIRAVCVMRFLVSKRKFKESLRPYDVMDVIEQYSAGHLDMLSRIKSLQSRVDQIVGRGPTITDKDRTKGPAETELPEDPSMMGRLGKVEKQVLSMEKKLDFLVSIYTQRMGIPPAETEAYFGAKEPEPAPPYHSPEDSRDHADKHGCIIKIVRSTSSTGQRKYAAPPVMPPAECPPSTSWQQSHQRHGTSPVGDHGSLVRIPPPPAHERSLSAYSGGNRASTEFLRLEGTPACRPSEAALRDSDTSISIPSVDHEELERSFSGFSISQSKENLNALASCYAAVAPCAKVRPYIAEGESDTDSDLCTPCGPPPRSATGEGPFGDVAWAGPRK
KCNQ2 pot baseline: recorded beside KCNQ2 pot, whose call it bears; B-score; compound at 10 µM; measured here: initial fluorescence intensity artifact check;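 brightness before thallium and not channel activity; 0 = typical well and far values either way flag optical interference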
* = called active by the depositor; & = joins results of further samples.

Start of the data: the first two compounds (preview)
KCNQ2 pot	KCNQ2 pot baseline	Structure
0.02	-0.2	COc1cccc(N2CCN(C(=O)CCc3nnc4ccc(N5CCCC5)nn34)CC2)c1
0.44	2.1	COc1ccc(-c2c(C)n([O-])c(C)c(C)[n+]2=O)cc1

All compounds of this part, previewed entries included:
KCNQ2 pot	KCNQ2 pot baseline	Structure
0.02	-0.2	COc1cccc(N2CCN(C(=O)CCc3nnc4ccc(N5CCCC5)nn34)CC2)c1
0.44	2.1	COc1ccc(-c2c(C)n([O-])c(C)c(C)[n+]2=O)cc1
0.68	-0.92	CC(C)(O)C#Cc1ccc(C(=O)Nc2ccc3c(c2)OCO3)s1
2	1.5	CCOC(=O)N1CCC(n2c(SCC(=O)NCCc3ccc(S(N)(=O)=O)cc3)nc3ccccc3c2=O)CC1
0.85	0.9	CC(C)(C)NC(=O)C1CCC(CNc2c(N3CCCCC3)c(=O)c2=O)CC1 (centres undefined)
0.98	0	O=C(NCCc1ccccc1)C1CCN(S(=O)(=O)c2ccc(Br)s2)CC1
2	-1.5	Cc1cc(C)cc(NC(=O)c2ccc3nc[nH]c3c2)c1
2.1	0.02	O=C(CCc1nnc2ccc(N3CCC4(CC3)OCCO4)nn12)N1CCCCC1
0.28	0.13	CC(NCc1cccs1)C(=O)NC1CCCCC1 (centres undefined)
4.4	-0.29	COc1ccc(C2=NN(c3ccccc3)C(c3cn(CCC(=O)O)nc3-c3ccccc3)C2)cc1 (centres undefined)
0.22	1.8	Cc1nn(C)c(C)c1CNC(=O)c1nn2c(c1Cl)NC(c1cccs1)CC2C(F)(F)F (centres undefined)
0.68	-1.1	O=C(CNC(=O)c1cccs1)OCC(=O)c1ccccc1
0.34	-2	Nc1nnc(-c2cccnc2)s1
1.2	0.81	COc1ccc(CCNC(=O)c2cnn3c(C(F)F)cc(C)nc23)cc1OC
0.05	0.47	Cc1ccc(N(C(=O)c2ccc(S(=O)(=O)N3CCOCC3)cc2)C2C=CS(=O)(=O)C2)cc1C (centres undefined)
0.01	0.88	CCCCC(=O)NC1(C(F)(F)F)C(=O)N(Cc2ccco2)C(C)=C1C(=O)OC (centres undefined)
0.35&0.08	1.6&0.24	CCN1CCC[C@H]1CNC(=O)c1c(O)c(Cl)cc(Cl)c1OC
0.2	-0.82	O=[N+]([O-])c1cccc(CN2CCN(c3ncccn3)CC2)c1
1.8	0.05	COc1cccc(CN2CCNC(=O)C2CC(=O)NC2CCCC2)c1OC (centres undefined)
0.79	2	O=C(N/N=C/c1c[nH]c2ccccc12)c1ccc(O)c(O)c1
0.54	0.15	CCn1c(SCC(=O)c2cc(OC)ccc2OC)nnc1C(C)C
0.11	-0.29	CCOc1ccc(OCC)c(NC(=O)Nc2ccc3c(c2)N(C)C(=O)CS3)c1
0.57	-0.13	COc1cccc(N(C(=O)c2nc3nccc(C)n3n2)c2nc3ccccc3s2)c1
0.92	-0.55	O=C(c1ccccc1Oc1ccc(C(F)(F)F)cc1[N+](=O)[O-])N1CCOCC1
0.36	-1.2	N#Cc1cc2c(nc1SCC(O)CS(=O)(=O)Cc1ccccc1)CCCC2 (centres undefined)
0.24	-0.33	COc1ccc(NC(=O)Cn2nnc(-c3ccccc3F)n2)cc1Cl
1.2	0.24	Cc1cc(-c2ccco2)n2c(nc3ccccc32)c1C#N
0.19	1.1	CC(=O)c1cn(CC(=O)Nc2ccccc2)c2ccccc12
0.24	1.6	N#CCSc1nc(Nc2ccc3c(c2)OCO3)c2ccccc2n1
0.29	-0.68	CN(/N=C/c1ccc(Cl)cc1Cl)c1ncc(Cl)cc1C(F)(F)F
0.04	0.7	CC(/C=N/n1c(-c2cccnc2)n[nH]c1=S)=C\c1ccccc1
0.4	0.03	COc1cccc(C(=O)N(Cc2cccs2)C2CCS(=O)(=O)C2)c1 (centres undefined)
0.3	-1.1	O=C(Nc1ccc2c(c1)OCCO2)c1cccnc1Oc1ccccc1
0.07	1.7	COc1ccccc1/C=N\N=C(\N)c1ccccn1
1.2	0.51	CCCc1cc(=O)oc2cc(OCc3ccc(C(=O)O)o3)ccc12
0.55	-1.3	CCCSCCCNC(=O)CC1Oc2ccccc2NC1=O (centres undefined)
1.7	-1.2	Cc1ccc(C(=O)c2ccccc2C(=O)Nc2ccccc2)cc1
0.9	0.61	Cc1c(CC(=O)O)c(=O)oc2cc(OCc3ccc(F)cc3Cl)ccc12
0.02	0.34	CC(NC(=O)C(NS(=O)(=O)c1cccc2nsnc12)C(C)C)c1ccccc1 (centres undefined)
0.96	-2.1	COc1ccc(C(=O)/C=C/Nc2cc(C)on2)c(OC)c1
0.36	1.6	Cc1cc(=O)[nH]c(-c2ccccc2)n1
1.1	0.23	CC(=O)NCCOc1nc(N(C)C)nc(N2CCOCC2)n1
2.3	-0.22	O=C(NC(=S)Nc1ccccc1[N+](=O)[O-])c1ccccc1
0.23	0.01	COc1ccc(N2C(=O)CSC23C(=O)Nc2ccccc23)cc1 (centres undefined)
0.5	-0.63	CC1CCCCN1CC(=O)c1c(N)n(Cc2ccccc2)c(=O)n(C)c1=O (centres undefined)
0.23	0.39	O=C(O)CCC(=O)Nc1ccc2c(c1)Cc1cc(NC(=O)CCC(=O)O)ccc1-2
1.4	2.4	CCNS(=O)(=O)c1ccc(NC(=O)Cn2nc(C(F)(F)F)cc2C)cc1
0.12	-0.05	CCOC(=O)/C(C#N)=C/NC(=O)NC(C)(C)C
0.71	-2.7	COC(=O)CN1C(=O)[C@H]2[C@@H](c3ccc(C)o3)N3C(=O)CN(Cc4ccc(-c5ccccc5)cc4)C(=O)[C@@]3(C)[C@H]2C1=O
0.11	-0.97	COc1ccc(-c2cc(C(=O)OCC(=O)NC(C)C)c3ccccc3n2)cc1
0.83	-0.28	CCOC(=O)C1=C(c2ccccc2)NC(=O)N(C(C)=O)C1c1cccc([N+](=O)[O-])c1 (centres undefined)
1.5	-0.29	Cc1cc(C)c(S(=O)(=O)N2CCCCC2C(=O)O)c(C)c1 (centres undefined)
2.1	-2.2	COc1ccc(NC(=O)CN(Cc2ccccc2)Cc2ccccc2)cc1S(N)(=O)=O
0.57	-1.8	COC(=O)c1ccc(NC(=O)CSc2nnc(-c3ccncc3)n2C)cc1
0.66	-1.6	CN1CCN(S(=O)(=O)c2ccc(NC(=O)c3cccs3)cc2)CC1
2.6	-0.84	CCCOC(=O)c1c(NC(=O)CCCn2nc([N+](=O)[O-])cc2C)sc(C(=O)OC)c1C
0.75	-0.23	O=C(O)C1(P(=O)(c2ccccc2)c2ccccc2)CCCC1
1.1	-0.18	Cc1oc2cc3oc(=O)c(CC(=O)NCC(=O)N[C@@H](C(=O)O)c4ccccc4)c(C)c3cc2c1C
0.38	-0.01	CC(C)OCC(O)CN (centres undefined)
0.73	-1.9	COc1ccc(-c2noc(CN(C)C3CCOCC3)n2)cc1

(more compounds)
KCNQ2 pot	KCNQ2 pot baseline	Structure
1.2	0.56	O=C(Nc1ccc2c(c1)CCCN2C(=O)c1ccccc1)c1ccccc1Br
0.59	-0.93	Cc1ccc(NC(=O)COC(=O)C2(c3ccc(Cl)cc3)CCCC2)cc1
0.1	0.21	CCOC(=O)c1cnn(CCOC(=O)Cc2cccs2)c1NC(=O)Cc1cccs1
0.4	-2.8	COn1c2c(c3c4no[n+]([O-])c4ccc31)CCCC2
1.1	1.9	COCCNC(=O)c1cc2cc3ccc(OC)cc3nc2o1
1.7	-0.12	Nc1c(C(=O)C2CC2)sc2nc3c(cc12)CCC3
1.2	-1.5	COCCC(=O)N1CCC(Oc2ccc(C(=O)N3C[C@H]4CC[C@H]3C4)cc2)CC1
0.21	-1.5	COc1ccc(-c2cc(C(F)(F)F)c(C#N)c(SCC(=O)Nc3nc(C)co3)n2)cc1
0.09	-0.06	CN(C)C(=S)NC(=O)C12CC3CC(C)(CC(C)(C3)C1)C2
0.13	1.4	Cc1ccc(NC(=S)Nc2ccc(C(C)C)cc2)cc1S(=O)(=O)N1CCCCCC1
2.1	0	Cc1ccc(-n2ncc3c(N4CCCC(C)C4)ncnc32)c(C)c1 (centres undefined)
1	-1	COc1ccc(CC(=O)OC(C)C(=O)Nc2ccc(S(N)(=O)=O)cc2)cc1 (centres undefined)

Random excerpt: 5 records from the list
KCNQ2 pot	KCNQ2 pot baseline	Structure
0.13	1.4	Cc1ccc(NC(=S)Nc2ccc(C(C)C)cc2)cc1S(=O)(=O)N1CCCCCC1
1.7	-0.12	Nc1c(C(=O)C2CC2)sc2nc3c(cc12)CCC3
1.2	-1.5	COCCC(=O)N1CCC(Oc2ccc(C(=O)N3C[C@H]4CC[C@H]3C4)cc2)CC1
0.59	-0.93	Cc1ccc(NC(=O)COC(=O)C2(c3ccc(Cl)cc3)CCCC2)cc1
0.1	0.21	CCOC(=O)c1cnn(CCOC(=O)Cc2cccs2)c1NC(=O)Cc1cccs1

Next section
KCNQ2 pot	KCNQ2 pot baseline	Structure
0.01	-1.7	CN(C)n1cccc1/C=C(\C#N)S(=O)(=O)c1ccc(Cl)cc1
1.6	0.22	CN1C(=O)NC(c2cccc(F)c2)C2=C1CC(C)(C)CC2=O (centres undefined)
0.77	0.67	CCCNC(=O)c1cccc(COCC(F)(F)C(F)F)c1
0.62	0.26	CC(C)CC(=O)Nc1nnc(SCC(=O)Nc2nccs2)s1
0.02	-0.63	S=C(NCCCN1CCOCC1)N1CCOCC1
0.66	0.16	Cc1ccccc1NC(=O)CSc1nnc(CNC(=O)c2ccc3c(c2)OCO3)n1C
1.2	0.5	O=C(NCCc1ccccc1F)C1CCCN1S(=O)(=O)c1ccccc1 (centres undefined)
0.79	0.24	CCOc1ccccc1NC(=O)Cc1cccs1
0.31	-0.51	CC(O)[C@H]1CNCCN1CCc1cccc(F)c1 (some centres undefined)
0.06	-1.5	CN1CCN(S(=O)(=O)c2cccc3nsnc23)CC1
2.4	-0.53	Cc1nc(C)c(Oc2ccc(Cl)cc2Cl)c(=O)[nH]1
1.5	0.7	CCC(C)NC(=O)c1ccc(NC(=O)C2CCCO2)cc1 (centres undefined)
0.89	-0.03	COc1ccc(-n2ccnc(SCC(=O)NC3CCCCC3)c2=O)cc1
2.1	0.94	CCOC(=O)c1c(C)[nH]c2cc(Br)c(O)cc12
0.33	1	CC(=O)NN1C(=O)/C(=C\c2ccc(Cl)cc2)SC1=S
0.24	-0.18	Cc1ccc(-n2c(=S)[nH]c3[nH]ncc3c2=O)cc1
0.38	1.6	N/C(CC(=O)Nc1cc(C(F)(F)F)ccc1Cl)=N\O
0.08	-0.51	Oc1ccccc1C1=NCCNC(C(F)(F)C(F)F)=C1
1.2	-0.05	Cc1occc1C(=O)Nc1ccc(OCc2ccccc2)cc1
0.57	0.77	CC1=C(C(=O)OCc2ccccc2)C(c2cccc(Cl)c2Cl)NC(=O)N1CCCCCC(=O)O (centres undefined)
0.58	0.2	O=C(c1ccccc1Oc1ccc([N+](=O)[O-])cc1)N1CCOCC1
0.11	0.11	Cc1cc(C)c(C#N)c(SCc2ccccc2F)n1
0.03	-0.19	Cc1ccc(-n2c(Cc3cccn3C)nnc2SCC(=O)Nc2ccc3c(c2)OCO3)cc1
1	0.57	COc1ccc(C(=O)NC2CC2)cc1OC1CCN(Cc2cnn(C)c2C)CC1

Look-ups from the results shown:
Entry of COc1ccc(NC(=O)CN(Cc2ccccc2)Cc2ccccc2)cc1S(N)(=O)=O in KCNQ2 pot: 2.1
Entry of S=C(NCCCN1CCOCC1)N1CCOCC1 in KCNQ2 pot: 0.02
Entry of CC(=O)NCCOc1nc(N(C)C)nc(N2CCOCC2)n1 in KCNQ2 pot: 1.1

The listing continues:
KCNQ2 pot	KCNQ2 pot baseline	Structure
0.09	0.9	Cc1ccccc1N(CC(=O)N1CCc2ccccc2C1)S(C)(=O)=O
2.4	-0.34	CC(=O)Oc1ccc(-c2cccc(C(=O)OCC(=O)N(C)c3ccccc3)c2)cc1
0.01	-0.18	CCOC(=O)c1cc(C(C)=O)c(=O)[nH]c1C
1.3	-0.93	Cc1ccc(N(Cc2cc3ccc(C)cc3[nH]c2=O)C(=O)c2cccs2)cc1
0.79	-0.31	Cc1nnsc1NC(=O)OCc1ccccc1Cl
0.62	0.52	CN1CCN(S(=O)(=O)c2ccc3c(c2)CC(=O)N3C)CC1
1.4	-0.13	CCOc1ccc2[nH]c(=O)c(CN(Cc3ccco3)C(=O)c3cccc(F)c3)cc2c1
0.4	-0.47	O=C(O)CCCC(=O)NNc1nc(-c2ccccc2)c2cc(Cl)ccc2n1
0.85	1.4	CCCCCCCCNC(=O)c1cccnc1SCC(=O)Nc1ccc(OC)cc1OC
0.5	-0.13	CCOC(=O)c1ccc(NC(=O)c2nc[nH]c2C(=O)N2CCN(c3ccccc3)CC2)cc1
0.75	0.3	Cc1nc(C(=O)NC2CCOCC2)sc1C1(C)CC(c2cccc([N+](=O)[O-])c2)=NO1 (centres undefined)
1	-0.44	CS(=O)Cc1cc(Oc2ccccc2)nc(-c2ccncc2)n1 (centres undefined)
2.8	-0.81	O=C(NCc1nc2ccccc2[nH]1)C1=C[C@H](C2CC2)C[C@H](OCCCCO)O1
1.2	0.54	Cc1ccc(/C=C/S(=O)(=O)NCC(=O)OCC(=O)Nc2c(F)cccc2F)cc1
0.76	-1.2	Cc1nnc(NCc2ccco2)s1
1.4	1.4	O=C(CN1CCN(Cc2ccc(Cl)cc2)C1=O)NCCCN1CCN(c2ccc(F)cc2)CC1
0.67	0.62	Nc1ccccc1SCC(=O)Nc1ccc2c(c1)OCO2
0.53	0.04	O=C(c1cccnc1)N1CCN(Cc2ccc3ccccc3c2)CC1
1	-0.17	O=C(Nc1cc(Cl)ccc1Cl)C1CCCO1 (centres undefined)
0.34	0.26	O=C(CN(C(=O)CCC(=O)Nc1nccs1)c1ccccc1F)NCC1CCCO1 (centres undefined)
0.64	-0.05	CC1COC(=O)C(NNc2ccc(Cl)c(Cl)c2)=N1 (centres undefined)
0.46	2.4	O=C(Nc1ccnn1C1CCN(Cc2ccc(Cl)cc2)CC1)C1CCCC1
0.66	5.3	CC(C)c1cccc(C(C)C)c1NC(=O)COC(=O)[C@H](C)NC(N)=O

A portion of the library; count on the stated rates, not on these rows.
